CSC inhib: blocks cancer stem cells | cancer stem cell-like cells viability, luminescence | inhibition, % at 7.5 µM | actives 1.1% (n = 300,000);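 active = mean at 75% or more and at least half the replicates too; inconclusive = mean and replicates disagree; tested in HMLE shEcad cells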;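 also: 0% = median of negative and 100% = median of positive control wells; the first replicate is given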
Rce1 inhib: inhibitors of yeast Ras-converting enzyme | Q03530 | yeast membranes, quenched prenylated peptide cleavage fluorescence | calls only | actives 0.27% (n = 290,000) | AID 2563;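 active = fall in fluorescence gain of 50% or more versus controls, with final raw signal at or below 3038400; inconclusive = same 50% fall but final raw signal above 3038400; inactive = fall in fluorescence gain under 50%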;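 also: plate controls were neutral control wells for no effect and wells lacking membranes for full effect; tested at 10 µM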
Target sequence (Q03530 whole entry, looked up): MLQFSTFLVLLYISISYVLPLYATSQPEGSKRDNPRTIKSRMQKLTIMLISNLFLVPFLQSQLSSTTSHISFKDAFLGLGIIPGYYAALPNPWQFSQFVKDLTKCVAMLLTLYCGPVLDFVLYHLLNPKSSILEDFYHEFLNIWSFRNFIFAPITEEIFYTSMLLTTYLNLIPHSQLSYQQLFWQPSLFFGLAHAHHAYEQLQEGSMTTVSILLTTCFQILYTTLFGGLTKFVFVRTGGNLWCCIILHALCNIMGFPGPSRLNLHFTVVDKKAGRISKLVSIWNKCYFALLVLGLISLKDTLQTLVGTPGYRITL
Yeast UUG start: alters start codon recognition fidelity in yeast. S. cerevisiae UUG-firefly luciferase reporter, luminescence/redox ratio. activity score, % at 18.7 µM. actives 0.13% (n = 350,000). AID 602363;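 active = replicate mean at a twofold rise or more, about +100% in these data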;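 also: firefly luciferase made from a UUG start codon reports start codon fidelity; reporter light over untreated wells divided by growth signal over untreated wells; some hits fall short of that in this replicate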
MT1-MMP act inh: MT1-MMP (human) activation inhibition; P50281; GFP/RFP ratio change, % at 20 µM; HT1080 RFP-PRO-GFP cells, GFP/RFP ratio fluorescence, overnight; percent of plate control window, DMSO zero; actives 0.061% (n = 360,000);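 active = GFP/RFP ratio change of at least 30% with cell ATP level not reduced by more than half and red fluorescence within 50% of control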; also: strong numbers were not always called active
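system = RFP-PRO-GFP reporter HT1080 cells | dosing = 20 µM single dose, 1% DMSO | timing = overnight cell settling, then overnight compound exposure, 37 °C, 5% CO2 | read-out basis = GFP/RFP fluorescence ratio | controls = DMSO and RFP-L50D-GFP cell wells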
PABP FP inh: blocks human PABP binding to poly(A) RNA | P11940 | fluorescence polarization | inhibition, % at 35 µM | actives 1% (n = 290,000);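 active = 50% or more with normal probe brightness, or confirmed in later tests; inconclusive = above 50% with abnormal brightness, or retests that disagree; inactive = below 50% or failed in later tests; about a fifth of its hits are not listed in these tables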;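 also: calls also rest on retests at 20 µM and on dose response follow-up; controls were probe without protein and protein plus probe with vehicle; some compounds called inactive have numbers as strong as hits; many hits fall short of the cut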
Target sequence (P11940 whole entry, looked up): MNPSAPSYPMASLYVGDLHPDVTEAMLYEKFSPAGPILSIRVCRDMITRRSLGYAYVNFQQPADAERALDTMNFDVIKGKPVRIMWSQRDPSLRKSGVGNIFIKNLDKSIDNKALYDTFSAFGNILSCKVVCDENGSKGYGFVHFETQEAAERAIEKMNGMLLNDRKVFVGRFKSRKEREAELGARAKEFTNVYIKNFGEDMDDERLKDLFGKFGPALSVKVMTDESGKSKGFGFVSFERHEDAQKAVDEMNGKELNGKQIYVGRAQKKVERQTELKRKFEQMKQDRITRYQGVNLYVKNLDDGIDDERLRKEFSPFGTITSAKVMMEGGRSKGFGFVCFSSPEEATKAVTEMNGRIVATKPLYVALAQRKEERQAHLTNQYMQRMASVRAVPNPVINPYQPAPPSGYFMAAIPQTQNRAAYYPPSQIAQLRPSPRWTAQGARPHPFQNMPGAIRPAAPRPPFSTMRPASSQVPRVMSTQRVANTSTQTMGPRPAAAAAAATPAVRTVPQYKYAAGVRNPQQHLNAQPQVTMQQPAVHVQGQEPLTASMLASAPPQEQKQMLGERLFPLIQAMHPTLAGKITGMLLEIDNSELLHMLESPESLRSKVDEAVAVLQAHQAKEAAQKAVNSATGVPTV
Env fusion inh: blocks HIV Env-driven cell-cell fusion; HeLa-JRFL Env/CEM21 cell fusion, luciferase; inhibition, % at 12.3 µM; actives 1.1% (n = 360,000); AID 651610;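 active = mean replicate inhibition score of at least 50 and every replicate individually at or above 50; inconclusive = only one of the two criteria met; inactive = mean below 50 and not all replicates reaching 50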;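 also: 0% = plate neutral controls and 100% = maraviroc near 300 nM; one replicate is shown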
eIF4H inh: inhibitors of RNA binding by human eIF4H; Q15056; eIF4H fluorescence polarization binding assay; inhibition, % at 35 µM; actives 0.94% (n = 290,000);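 active = 50% or more with normal probe brightness, or confirmed in later tests; inconclusive = above 50% with abnormal brightness, or retests that disagree; inactive = below 50% or failed in later tests; about a fifth of its hits are not listed in these tables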;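 also: calls also rest on retests at 20 µM and on dose response follow-up; 0% = protein and probe with vehicle and 100% = probe without protein; strong numbers were not always called active; many hits fall short of the cut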
eIF4H inh retest: second read-out of eIF4H inh, no call of its own (marks repeat the call); inhibition, %; compound at 20 µM; confirmation average;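 mean of two retest wells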
PABP FP inh retest: also measured in PABP FP inh; calls as there; inhibition, %; compound at 20 µM; confirmation repeats;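 mean of two retest wells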
MT1-MMP act inh RFP: also measured in MT1-MMP act inh; calls as there; RFP signal change, %; measured here: RFP expression control read;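 0 = vehicle wells; hits needed this value within 50% of zero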
* marks the source's active call; other numbers are inactive results; i = inactive; u = inconclusive; x = not tested or not shown.

SMILES	CSC inhib	Rce1 inhib	Yeast UUG start	MT1-MMP act inh	MT1-MMP act inh RFP	PABP FP inh	Env fusion inh	eIF4H inh	others
CC(C)CCC(CCNCc1ccccn1)c1ccc(Cl)cc1 (stereo unspecified)	18.2	i	-27.1	-1.3	-0.7	9.0	23.2	1.5
N#Cc1ccc(NC(=O)c2cc(S(=O)(=O)N3CCOCC3)ccc2N2CCCC2)cc1	6.1	i	-17.6	-5.9	-2.2	x	-16.6	x
COc1ccc(NC(=O)Cn2nnc3ccccc32)c([N+](=O)[O-])c1	-4.7	i	x	6.2	-2.6	15.7	-18.1	-2.1
C=C(C)Cn1c(-c2ccccc2)nc2ccccc21	-7.2	i	x	-3.5	-1.8	2.5	20.3	-0.3
Cc1ccc(CN2C(=O)CSC2c2cccnc2)cc1 (stereo unspecified)	-0.1	x	x	3.9	6.0	-7.1	8.4	5.3
Cc1ccc(C)c(Nc2nc(-c3ccncc3)nc3ccccc23)c1	14.8	i	-16.9	-4.3	-7.3	-8.6	20.7	-5.6
COCCSc1nc2sc3c(c2c(=O)n1-c1ccccc1)CCN(C)C3	-13.3	i	-9.7	-8.4	3.4	30.1	x	45.5
COc1cccc(N2CCN(C(=O)CCNS(=O)(=O)c3ccc4c(c3)c(=O)n(C)c(=O)n4C)CC2)c1	-1.8	i	x	-0.5	-0.5	3.1	-3.1	-8.3
CC(=O)N1N=C(c2ccccc2OC(=O)/C=C/c2ccccc2)CC1c1ccccc1 (stereo unspecified)	7.1	i	x	x	x	-9.5	11.1	1.4
O=C(N/N=C/c1ccncc1)c1cc2c(ccc3ccccc32)o1	1.6	i	7.4	2.0	-2.1	-16.7	x	-28.0
CCCN(C(=O)c1ccc(N2CCCC2=O)cc1)C1CCS(=O)(=O)C1 (stereo unspecified)	-2.5	x	-15.0	0.4	2.1	x	0.3	x
CCOc1cc(S(=O)(=O)Nc2ccccc2CC)ccc1Cl	25.9	i	x	-1.7	1.0	1.2	15.8	-2.0
O=C(CNCCc1ccc(F)cc1)Nc1cc(F)ccc1F	5.3	i	-18.0	-0.3	3.0	1.1	-16.8	8.9
O=C(NCc1ccccc1)c1cc(-c2cccs2)on1	11.7	i	-2.2	2.7	5.2	2.9	x	10.8
COC(=O)[C@H]1C[C@@]2(O)CN(S(=O)(=O)c3ccc(C)cc3)C[C@@]2(OC(=O)NC2CCCC2)C[C@H]1C(=O)OC	x	x	5.6	3.5	5.4	x	-54.3	x
Cc1cc(/C=C(/C#N)C(=O)O)c(C)n1CCC(C)C	2.1	i	x	4.3	1.3	-2.0	28.3	-2.9
Oc1ccc(Cc2ccccc2Cl)c(O)c1	x	x	-13.5	5.0	4.5	x	-2.2	x
COc1ccccc1N1CCN(C(=O)CSc2nc(C)c(Cc3ccccc3)c(=O)[nH]2)CC1	2.5	i	x	1.3	-16.3	8.8	x	4.0
CCOc1ccc(CCN2C(=S)N([C@@H](Cc3ccccc3)CN3CCC[C@@H]3CN3C(=S)NC[C@@H]3Cc3ccc(O)cc3)C[C@@H]2CC(C)C)cc1	x	x	-9.5	-1.1	-10.1	x	63.9*	x
Cc1nc2ccccn2c1-c1nnco1	14.9	i	-23.4	-4.4	-1.8	-15.1	x	-7.1
O=C(Nc1ccc(S(=O)(=O)N2C[C@@H]3C[C@@H](C2)c2cccc(=O)n2C3)cc1)c1ccc(F)cc1	-11.8	x	1.5	1.2	7.3	x	x	x
c1ccc(-c2cc(-c3nnc4sc(-c5ccccn5)nn34)[nH]n2)cc1	1.8	i	-13.4	8.8	2.3	-2.4	x	4.4
CON(C)c1nc(OCCNC(=O)OCc2ccc(Cl)cc2C)nc(N(C)C)n1	x	i	5.4	7.0	2.2	-5.5	150.3*	0.7
Cc1[nH]c2ccccc2c1C(=O)C(=O)NCCCc1ccccc1	6.6	i	0.5	1.2	0.5	-4.0	0.2	-5.2
COC(=O)c1ccccc1NC(=O)CCCN1C(=O)C(c2ccccc2)Oc2cccnc21 (stereo unspecified)	17.0	i	8.5	-2.6	4.5	x	5.2	x
More entries follow:
SMILES	CSC inhib	Rce1 inhib	Yeast UUG start	MT1-MMP act inh	MT1-MMP act inh RFP	PABP FP inh	Env fusion inh	eIF4H inh	others
COc1cc(NC(=O)Nc2nnc([C@H]3C[C@H](O)[C@@H](CO)O3)s2)cc(OC)c1OC	x	x	-6.4	1.6	3.6	x	-10.4	x
COc1cc(C2C(C(=O)OCCC#N)=C(C)NC3=C2S(=O)(=O)c2ccccc23)cc(OC)c1OC (stereo unspecified)	-13.8	i	-26.1	4.3	1.5	-2.0	3.3	3.5
CN(C)/C=N/C(=S)Nc1ccccc1F	-6.3	i	-35.7	10.6	4.8	-10.3	x	-0.6
COCCNC(=O)NC(=O)CN1CCN(C(c2ccccc2)c2ccccc2)CC1	-13.7	i	x	0.0	-1.7	18.5	-0.4	-3.1
C=CCn1c(=O)c2c(nc3n2CCCN3Cc2ccccc2)n(C)c1=O	2.5	i	-20.3	4.5	1.6	-7.0	11.6	-6.9
CCOC(=O)c1cc2n(n1)C(C(F)(F)C(F)(F)F)CC(C)N2 (stereo unspecified)	-7.6	i	6.4	-4.2	-1.6	2.4	x	-11.5
Cc1ccc(NC(=O)CSCC(=O)NCCc2ccccc2)cc1	6.6	i	2.8	4.1	5.3	-0.1	-3.3	-6.2
O=C1ON=C(c2cccc([N+](=O)[O-])c2)/C1=C/c1ccc(O)cc1	5.1	i	x	0.6	-1.7	-3.6	8.2	0.4
O=C(CCS(=O)(=O)Cc1ccc(Cl)cc1)NCCCN1CCN(c2ccccc2F)CC1	-6.7	i	-2.0	3.7	1.0	-4.5	37.8	12.1
O=C(COc1ccccc1Cl)N1CCc2ccccc21	x	i	-12.0	-3.4	-7.6	6.5	-71.5	19.9
COC(=O)c1ccc(NS(=O)(=O)c2ccc(S(=O)(=O)N3CCOCC3)cc2)cc1	7.9	x	10.2	2.5	2.8	x	-2.2	x
C=CCOC(=O)C1=C(C)NC(SCC(N)=O)=C(C#N)C1c1cccs1 (stereo unspecified)	-4.8	i	-27.8	-5.5	-6.7	10.2	15.4	4.2
Cc1cc(NC(=O)CN2C(=O)S/C(=C\c3ccccc3)C2=O)no1	0.2	i	x	2.8	4.0	16.1	4.9	-8.9
N=c1nc(N)nc2n1NC(c1ccc(F)cc1)=CS2	23.7	i	-19.2	7.4	-9.7	-7.8	x	-2.1
O=C(CSc1nc2ncc(Br)cc2[nH]1)Nc1ccccc1-c1ccccc1	-16.2	i	-35.8	2.3	-4.2	-3.2	24.3	-8.4
COc1ccc(NC(=O)N2CCCC2C(=O)Nc2ccc(C)cc2C)cc1 (stereo unspecified)	x	i	-21.4	0.9	-0.4	2.5	-9.9	-17.5
Cc1ccccc1NC(=O)c1cccc(C(F)(F)F)c1	-9.4	i	-10.8	-1.3	-0.1	2.8	-15.2	6.7
CC1(C)C(=O)C2(C(=O)NCc3ccccc3)CCC1C2 (stereo unspecified)	-6.2	i	-15.3	-3.9	1.9	-1.2	-79.3	8.0
Cn1cnc([N+](=O)[O-])c1Oc1cccc2ccccc12	18.5	i	x	-1.1	-8.2	3.0	9.1	-0.1
CCNC(=O)C1CCCN(C(=O)c2c(-c3ccccc3)noc2C)CC1 (stereo unspecified)	x	x	-8.8	-0.1	4.9	x	-14.1	x
CCCCN(C(=O)c1cc(-c2ccco2)nc2ccccc12)c1c(N)n(CCCC)c(=O)[nH]c1=O	-11.6	i	x	-2.4	-1.5	x	-81.5	x
CC(=O)N1/C(=C/c2ccc(N(C)C)cc2)C(=O)c2ccccc21	x	i	x	5.5	-5.5	-4.3	-196.6	-2.2
Cc1ccc2c(c1)N(C(=O)CCC(=O)NCCCN1CCN(C)CC1)CCO2	x	i	-17.8	0.9	5.2	-12.1	x	-10.8
COc1cc(F)ccc1-c1csc(C(NC(C)=O)c2ccccc2)n1 (stereo unspecified)	x	x	-1.8	-0.7	1.4	x	-29.0	x
CCCC[n+]1ccn(-c2nc3c([N+](=O)[O-])cccc3n2C)c1	x	i	-10.2	-0.6	3.4	x	-4.9	x
The list goes on:
SMILES	CSC inhib	Rce1 inhib	Yeast UUG start	MT1-MMP act inh	MT1-MMP act inh RFP	PABP FP inh	Env fusion inh	eIF4H inh	others
NCCCC[C@@H](C(=O)N1CCNCC1)n1cc([C@@H](N)CO)nn1	-2.2	i	-8.2	10.0	8.1	44.2	13.9	3.3
Cc1nc(NC(=O)C2CC2)sc1C(=O)Nc1cccc(Cl)c1	34.3	i	-12.6	2.6	3.6	4.1	-26.3	-9.9
O=C(NC1CCN(C(=O)c2ccccc2Br)CC1)c1ccccc1	-6.8	i	2.2	-3.8	1.4	2.8	7.5	-3.7
Cc1ccc(C(=O)n2nnc3ccccc32)cc1[N+](=O)[O-]	-28.1	i	-4.2	-1.6	-1.9	17.6	5.9	14.2
O=C(CN1C(=O)/C(=C\c2cccc(F)c2)Oc2ccccc21)N1CCN(c2ccccn2)CC1	-16.4	i	-25.6	x	x	5.4	17.1	-13.2
Cc1ccc(NC(=S)N2CC(C)OC(C)C2)cc1C (stereo unspecified)	-15.3	i	-6.1	2.3	0.9	9.4	6.4	-8.3
Cc1cc(C)n2[nH]c(=O)c(N=Nc3ccccc3)c2n1	14.3	i	x	4.2	-0.4	8.6	x	-9.3
COC(=O)C1=C(C)NC(C)=C(C(=O)OC)C1c1cn(-c2ccccc2)nc1-c1ccco1	4.3	i	-1.0	-9.9	-5.4	-8.3	-125.4	-1.6
COc1ccc(C(CNC(=O)c2cccc(S(=O)(=O)Nc3ccc(F)cc3)c2)N(C)C)cc1 (stereo unspecified)	x	x	9.5	-6.8	-1.8	x	5.9	x
CNC[C@H](O)c1ccc(O)c(O)c1	0.8	i	-4.7	3.6	2.9	-7.5	-4.9	99.6	eIF4H inh retest=-1.2;PABP FP inh retest=0.2
CCOC(=O)c1sc(=NC(=O)c2ccco2)n(C)c1C	-3.0	i	x	0.4	6.8	-12.0	-9.4	-2.4
CCCC(=O)N1CCC1(C)C(=O)Nc1ccc2nccnc2c1 (stereo unspecified)	x	x	4.1	-2.3	1.0	x	18.5	x
COc1cc(C(=O)NCc2cc3cc(Cl)ccc3n2C)cc(OC)c1OC	-12.4	i	-7.8	3.0	-6.4	-0.4	-4.0	-4.5
COC(=O)c1[nH]c2c(c1C(=O)OC)CCc1ccccc1-2	-8.4	i	-8.0	-2.7	-2.1	21.2	-25.3	20.5
O=C(NCc1cc(Br)cc(Br)c1OC(=O)c1ccccc1[N+](=O)[O-])c1ccccc1	x	i	x	-3.9	-13.5	-9.8	8.9	7.0
CCOC(=O)NC(=S)Nc1c(C)n(C)n(-c2ccccc2)c1=O	-17.0	i	x	-1.6	3.1	4.7	-0.6	-4.3
N#Cc1c(Nc2ccccc2)c(C=NCCN2CCOCC2)c[nH]c1=O	-13.4	i	-20.3	-0.7	3.6	20.0	x	10.9
CCOc1ccc(NC(=O)c2ccc(C#CC(C)(C)O)cc2)cc1	x	i	-7.6	-3.8	-8.7	-9.9	x	-5.2
Cn1c(N)c(C(=O)COC(=O)c2ccc(S(=O)(=O)N3CCCCC3)cc2)c(=O)n(C)c1=O	-12.2	i	x	x	x	8.3	x	2.5
O=C1CC(NS(=O)(=O)c2ccc([N+](=O)[O-])cc2)CN1c1ccc2c(c1)OCCO2 (stereo unspecified)	-18.5	i	-5.7	-0.8	-1.4	x	-2.7	x
CCCCN1C(=O)/C(=C/C=C2\Oc3ccccc3N2CC)SC1=S	x	i	-16.9	-52.0	40.4	u	0.4	u

Not all compounds are listed. The share of hits here may be higher or lower than overall.
